Screens deposited in PubChem by several laboratories.
Beta apoptosis = beta cell apoptosis inhibition; protection from apoptosis, % (concentration not given with the values); INS-1E cytokine-induced death, ATP luminescence, 48 h; percent of positive-control rescue, neutral wells zero; AID 435005; hit rate 0.8% among 300,000;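 active = all replicates at 75% or more, or half of them and the mean; inconclusive = half reach 75% but not the mean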;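 also: 0% = cytokine-treated negative control wells and 100% = positive control rescue; higher means more ATP so stronger rescue from cytokine killing; wells of about 40 µL received 100 nL stock; the first replicate is given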
T cruzi inh = blocks replication of Trypanosoma cruzi; T. cruzi beta-gal in NIH3T3, luminescence, 90 h; inhibition, % (no concentration beside the values); hit rate 1.4% among 300,000;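 active = mean inhibition across valid replicates above about 55%, limit read from the data; inconclusive = mean below that limit but half or more replicates reach it; inactive = mean below it, under half of replicates reach it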;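 also: signal also drops with host cell toxicity which is not excluded here; 0% = plate median of DMSO wells and 100% = zero luminescence signal; higher percent means less beta-gal luminescence so fewer parasites; stock transfer was 50 nL into about 50 µL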
AF4-AF9 inh = MLL-AF4/AF9 protein interaction inhibition; inhibition, % at 10 µM; hit rate 0.47% among 350,000; AlphaScreen, biotin-AF4 peptide binding to FLAG-AF9; AID 651704; P42568;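 active = every replicate reaching a set inhibition limit, whatever the replicate mean, cut at about 25% in these data; inconclusive = mean inhibition reaches that limit but some replicates miss it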;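 also: 0% = plate neutral control median and 100% = total signal loss; the record names both 10 and 1 µM as test concentration; the first replicate is given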
Target sequence (P42568 whole entry, looked up): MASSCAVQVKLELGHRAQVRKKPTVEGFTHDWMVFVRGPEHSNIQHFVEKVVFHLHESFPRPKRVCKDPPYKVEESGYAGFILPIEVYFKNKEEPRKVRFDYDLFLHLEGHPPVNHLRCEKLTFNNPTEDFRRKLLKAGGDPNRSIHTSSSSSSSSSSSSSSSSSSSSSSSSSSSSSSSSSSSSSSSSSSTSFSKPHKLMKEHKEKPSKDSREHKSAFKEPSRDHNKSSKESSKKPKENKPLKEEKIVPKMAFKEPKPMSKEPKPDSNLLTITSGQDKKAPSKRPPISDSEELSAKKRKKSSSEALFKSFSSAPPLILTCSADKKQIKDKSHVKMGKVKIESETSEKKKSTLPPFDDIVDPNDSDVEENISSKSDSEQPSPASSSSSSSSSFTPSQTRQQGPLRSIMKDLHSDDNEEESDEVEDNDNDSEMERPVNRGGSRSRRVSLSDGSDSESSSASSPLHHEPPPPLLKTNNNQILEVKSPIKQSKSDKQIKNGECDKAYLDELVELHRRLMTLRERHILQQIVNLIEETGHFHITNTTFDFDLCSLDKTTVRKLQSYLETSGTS
A1 inh = inhibitors of the anti-apoptotic protein A1, read as caspase activation; AID 2462; hit rate 0.066% among 330,000; caspase activation, % (test concentration not listed); MEF A1-2A-BIM cells, Caspase-Glo 3/7 luminescence, 3 h; percent of clofoctol response, vehicle zero;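 active = over half of replicate activation scores above 10%, or exactly half above 10 with the replicate mean above 10; inconclusive = replicate mean below 10 yet half the replicates above 10; inactive = over half of replicates below 10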;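 also: wells of about 30 µL received 50 nL stock; many hits fall short of the cut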
rRNA inh HTS = selective bacterial rRNA inhibition in E. coli; E. coli WT GFP vs humanized-ribosome RFP mutants, fluorescence, 24 h; hits give low values; DMSO median 0, no signal -100; GFP signal change (wild-type ribosome), % (no concentration beside the values); hit rate 1.6% among 350,000; AID 720706;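 active = significant combined selectivity score with lowered wild-type GFP, culture density cut under 30%, mutant RFP and density less affected; inactive = any of these conditions unmet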; also: one replicate is shown; some compounds called inactive have numbers as strong as hits
Vif A3G = inhibitors of Vif binding to APOBEC3G peptide, primary screen, biochemical, TR-FRET, GST-Vif 1-94, biotin-A3G peptide, dose response retest (AID 1117319); TR-FRET GST-Vif / biotin-A3G peptide binding; higher % means a stronger effect; test concentration not given here; strong numbers were not always called active; hit rate 0.57% among 260,000; one-dose inhibition, %; IC50 in µM for titrated hits;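 active = above the screen mean plus three standard deviations and confirmed in dose response; inconclusive = results disagree or hit not tested in dose response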;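 also: Vif residues 1-94 fused to GST binding biotinylated APOBEC3G peptide 110-148; 0% = full assay without inhibitor and 100% = GST in place of GST-Vif; retest series ran down from 100 µM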
RanGTP-Impb inh = disruptors of Ran-importin-beta complex formation – biochemical, FRET, CFP-Ran, YFP-importin-beta, homogeneous, primary screen; cell-free CFP-Ran/YFP-importin-beta FRET ratio; inhibition, % (no concentration beside the values); hit rate 1.1% among 300,000; AID 2216;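 active = most replicates above 15%; inconclusive = exactly half above 15%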;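 also: 0% = DMSO wells and 100% = Ran loaded with GDP instead of GTP; wells of about 40 µL received 100 nL stock; the first replicate is given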
Calb FLC = C. albicans growth modulation with fluconazole. AID 1979. hit rate 0.57% among 300,000. C. albicans CaCi-2 (fluconazole-resistant clinical isolate) + fluconazole, Alamar Blue growth, 48 h. growth inhibition, % (concentration not given with the values);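 active = most replicates above 75%; inconclusive = exactly half above 75%; inactive = most below 75%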;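 also: all wells also contain fluconazole at 8 µg/ml as a sub-toxic cotreatment; 0% = median of DMSO wells and 100% = median of geldanamycin control wells; wells of about 8 µL received 7.5 nL stock; the first replicate is given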
rRNA inh HTS OD600 = further read-out of rRNA inh HTS, marked with its call; OD600 change, %; measured here: OD600 growth;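 optical density of the mix in the first replicate; 0 = DMSO median and -100 = no signal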
rRNA inh HTS RFP = also measured in rRNA inh HTS; calls as there; RFP signal change, %; measured here: RFP humanized mutant strains;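 first replicate; 0 = DMSO median and -100 = no signal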
* hit, by the source's call; & = joins results of further samples. Not all compounds are listed (hit frequency here may not be typical).

Results for COCCn1c(C)cc(C(=O)COC(=O)c2ccc[nH]c2=O)c1C ?
T cruzi inh: -4; A1 inh: -1.1; Vif A3G: 0%; RanGTP-Impb inh: 1.3; Calb FLC: 6

How did COc1cccc(C(=O)Cn2c(=O)n(CCC(=O)NCC3CCCO3)c(=O)c3cc(OC)c(OC)cc32)c1 (stereo unspecified) do in these assays?
Beta apoptosis: -8; T cruzi inh: 3; AF4-AF9 inh: -33; A1 inh: 0.4; rRNA inh HTS: 2; RanGTP-Impb inh: -2.5; Calb FLC: -4; rRNA inh HTS OD600: -3; rRNA inh HTS RFP: -5.7

Results for Cc1cc(-c2ccc(C(=O)O)s2)cnc1N ?
Beta apoptosis: -5; T cruzi inh: -20; AF4-AF9 inh: -3.0; A1 inh: -6.1; rRNA inh HTS: 18; Vif A3G: -8%; RanGTP-Impb inh: 3.2; Calb FLC: -20; rRNA inh HTS OD600: 12; rRNA inh HTS RFP: -0.9

What do the screens show for `COc1ccc(CC(=O)NCC(c2ccc(OC)cc2)N(C)C)cc1` (stereo unspecified)?
Beta apoptosis: -7; T cruzi inh: 3; AF4-AF9 inh: 1.5; A1 inh: 0.6; rRNA inh HTS: 5; RanGTP-Impb inh: -1.6; Calb FLC: inconclusive; rRNA inh HTS OD600: 12; rRNA inh HTS RFP: -0.9

How did CCOC(=O)c1cnn2c(C(F)(F)F)cc(-c3ccco3)nc12 do in these assays?
Beta apoptosis: 5; T cruzi inh: -3; A1 inh: 0.1; Vif A3G: 17%; RanGTP-Impb inh: inconclusive; Calb FLC: -5

What do the screens show for `Cc1c(CN(C)CCc2ccccc2)c(=O)n(-c2ccccc2)n1C`?
T cruzi inh: -6; AF4-AF9 inh: -30; A1 inh: 0.1; rRNA inh HTS: 21; Vif A3G: -2%; RanGTP-Impb inh: 5.4; Calb FLC: -3; rRNA inh HTS OD600: 19; rRNA inh HTS RFP: 1.8

What do the screens show for `O=C(c1ccc(CS(=O)(=O)c2ccccc2)o1)N1CCN(c2ncccn2)CC1`?
Beta apoptosis: -2; T cruzi inh: -10; AF4-AF9 inh: 4.1; A1 inh: 0.9; rRNA inh HTS: 1; Vif A3G: 5%; RanGTP-Impb inh: -0.4; Calb FLC: 2; rRNA inh HTS OD600: -2; rRNA inh HTS RFP: 0.5

How did C=CCc1ccc(OCCOCCNCCOC)c(OC)c1 do in these assays?
Beta apoptosis: -1; T cruzi inh: 25; A1 inh: 0.5; Vif A3G: 0%; RanGTP-Impb inh: 5.6; Calb FLC: -7

Results for CCS(=O)(=O)c1ccc2oc(Nc3ccc(C(C)C)cc3)nc2c1 ?
Beta apoptosis: 8; T cruzi inh: 1; A1 inh: 1.9; Vif A3G: -113%; RanGTP-Impb inh: -1.5; Calb FLC: -3

How did CC1CCN(S(=O)(=O)c2ccc3c(c2)N(CC(=O)N(C)Cc2ccco2)C(=O)CO3)CC1 do in these assays?
Beta apoptosis: -2; T cruzi inh: 7; AF4-AF9 inh: 0.5; A1 inh: 0.2; rRNA inh HTS: -1; RanGTP-Impb inh: 4.0; Calb FLC: -4; rRNA inh HTS OD600: 9; rRNA inh HTS RFP: -0.9

How did Cn1cc(C(=O)N2CCCCCC2)c(=O)c2cc(S(=O)(=O)N3CCCCC3)ccc21 do in these assays?
Beta apoptosis: 0; T cruzi inh: 4; AF4-AF9 inh: 0.5; A1 inh: 0.4; rRNA inh HTS: 16; Vif A3G: 1%; RanGTP-Impb inh: 2.8; Calb FLC: -4; rRNA inh HTS OD600: 13; rRNA inh HTS RFP: -0.8

What do the screens show for `CC(C)(C)C(=O)NC1(C(F)(F)F)NC(=O)N(c2ccc(F)cc2)C1=O` (stereo unspecified)?
Beta apoptosis: -5; T cruzi inh: -1; AF4-AF9 inh: -1.8; A1 inh: 0.2; rRNA inh HTS: 8; Vif A3G: -7%; RanGTP-Impb inh: -4.4; Calb FLC: 4; rRNA inh HTS OD600: 15; rRNA inh HTS RFP: 0.9

Results for Cc1cc2c(c(=O)o1)C(c1ccc([N+](=O)[O-])o1)C(C#N)=C(N)O2 (stereo unspecified) ?
Beta apoptosis: -8; T cruzi inh: 7; AF4-AF9 inh: -9.0; A1 inh: 0.1; rRNA inh HTS: -28; Vif A3G: 2.5µM*; RanGTP-Impb inh: 8.5; Calb FLC: -7; rRNA inh HTS OD600: -10; rRNA inh HTS RFP: 19

Results for CSc1nnc(-c2ccc(C(F)(F)F)cn2)o1 ?
AF4-AF9 inh: 0.5; A1 inh: inconclusive; rRNA inh HTS: 7; Vif A3G: 8%; RanGTP-Impb inh: 2.0; Calb FLC: -7; rRNA inh HTS OD600: 0; rRNA inh HTS RFP: 0.9

Results for Brc1ccc(Cn2c(-c3cncs3)nc3ccccc32)cc1 ?
Beta apoptosis: -6; T cruzi inh: 14; A1 inh: 0.8; rRNA inh HTS: -7; Vif A3G: -49%; RanGTP-Impb inh: -2.3; Calb FLC: -13; rRNA inh HTS OD600: -5; rRNA inh HTS RFP: -1.3

What do the screens show for `COc1ccc(OCC2CCCN(Cc3nc(CC4CC4)no3)C2)cc1` (stereo unspecified)?
Beta apoptosis: -4; T cruzi inh: 17; AF4-AF9 inh: 0.4; A1 inh: -0.2; rRNA inh HTS: -24; Vif A3G: 28%; RanGTP-Impb inh: -0.6; Calb FLC: -20; rRNA inh HTS OD600: -31; rRNA inh HTS RFP: -7.9

How did CC1CC(C)CN(C(=O)c2cn(C)c3ccc(S(=O)(=O)N(C)C)cc3c2=O)C1 (stereo unspecified) do in these assays?
Beta apoptosis: -6; T cruzi inh: -5; AF4-AF9 inh: -1.2; A1 inh: -0.1; rRNA inh HTS: 11; Vif A3G: 0%; RanGTP-Impb inh: 1.0; Calb FLC: -3; rRNA inh HTS OD600: 18; rRNA inh HTS RFP: -2.1

Results for CC(C)C(NC(=O)C1CC(=O)N(Cc2ccccc2)C1)c1nc2ccccc2[nH]1 (stereo unspecified) ?
Beta apoptosis: -5; AF4-AF9 inh: 0.2; A1 inh: -0.3; rRNA inh HTS: 0; Vif A3G: 1%; rRNA inh HTS OD600: 1; rRNA inh HTS RFP: -1.5

Results for COc1ccc2cc(C(=O)NCc3ccco3)c(=Nc3ccc(C(=O)O)cc3)oc2c1 ?
T cruzi inh: 8; A1 inh: -0.9; Vif A3G: 23%; RanGTP-Impb inh: 1.5; Calb FLC: -2

How did COc1ccc(C2/C(=C(/O)c3ccc4c(c3)CC(C)O4)C(=O)C(=O)N2CCN2CCOCC2)cc1 (stereo unspecified) do in these assays?
Beta apoptosis: 1; T cruzi inh: -4; A1 inh: -0.3; Vif A3G: 14%; RanGTP-Impb inh: 1.5; Calb FLC: 1

How did COc1ccc(N(CC(=O)Nc2ccc(OC)c(OC)c2)S(=O)(=O)c2ccccc2)cc1Cl do in these assays?
Beta apoptosis: 2; T cruzi inh: 20; AF4-AF9 inh: inconclusive; A1 inh: 0.1; rRNA inh HTS: -7; RanGTP-Impb inh: -0.4; Calb FLC: 25; rRNA inh HTS OD600: -20; rRNA inh HTS RFP: 6.4

What do the screens show for `O=C(NCc1ccccn1)c1ccc(S(=O)(=O)Nc2ccccc2F)cc1`?
Beta apoptosis: -8; T cruzi inh: -11; AF4-AF9 inh: -1.5; A1 inh: -0.3; rRNA inh HTS: -1; Vif A3G: -2%; RanGTP-Impb inh: -0.9; Calb FLC: 7; rRNA inh HTS OD600: 4; rRNA inh HTS RFP: -2.7

How did COC(=O)c1ccc(C2/C(=C(/O)c3ccc(OC(C)C)cc3)C(=O)C(=O)N2c2cc(C)on2)cc1 (stereo unspecified) do in these assays?
Beta apoptosis: -5; T cruzi inh: -27; A1 inh: 1.5; Vif A3G: 0%&-4%; RanGTP-Impb inh: -0.4; Calb FLC: 1

What do the screens show for `CSc1ncccc1C(=O)OCc1c(F)cccc1Cl`?
Beta apoptosis: 2; T cruzi inh: 4; AF4-AF9 inh: 0.0; A1 inh: -2.0; rRNA inh HTS: -38; Vif A3G: -4%; RanGTP-Impb inh: -0.9; Calb FLC: 0; rRNA inh HTS OD600: -56; rRNA inh HTS RFP: -10

What do the screens show for `CN(C)c1ccc(-c2nc3cc(N)ccc3o2)cc1`?
Beta apoptosis: 3; T cruzi inh: 18; AF4-AF9 inh: -0.3; A1 inh: -11; rRNA inh HTS: -25; RanGTP-Impb inh: 2.7; Calb FLC: 4; rRNA inh HTS OD600: -19; rRNA inh HTS RFP: -8.6

How did COc1ccc(-c2csc3ncnc(Sc4nnnn4C)c23)cc1 do in these assays?
Beta apoptosis: -18; AF4-AF9 inh: 0.4; A1 inh: 1.7; rRNA inh HTS: -14; rRNA inh HTS OD600: -5; rRNA inh HTS RFP: 3.9

Results for CCN(CC(=O)Nc1ccc2c(c1)OCCO2)S(=O)(=O)c1cccs1 ?
Beta apoptosis: -5; T cruzi inh: 1; A1 inh: 0.9; Vif A3G: 11%; RanGTP-Impb inh: 0.6; Calb FLC: -1

Results for COc1ccc(-c2nc3ccccc3[nH]2)cc1 ?
T cruzi inh: -8; AF4-AF9 inh: -0.8; A1 inh: -8.3; rRNA inh HTS: -16; Vif A3G: 7%; RanGTP-Impb inh: 6.5; Calb FLC: -17; rRNA inh HTS OD600: -8; rRNA inh HTS RFP: -7.3

How did Cc1cc(OC(=O)c2ccco2)c2c(C)cc(=O)oc2c1 do in these assays?
Beta apoptosis: -8; T cruzi inh: -18; A1 inh: 0.9; Vif A3G: 2%; RanGTP-Impb inh: -2.8; Calb FLC: -11

How did Cc1cccc(OCCC(=O)NCC(c2ccco2)N2CCCCC2)c1 (stereo unspecified) do in these assays?
Beta apoptosis: -6; T cruzi inh: -18; A1 inh: 0.0; Vif A3G: 0%; RanGTP-Impb inh: 3.3; Calb FLC: -6

How did CC(C)(C)NC(=O)COC(=O)/C=C/c1ccccc1[N+](=O)[O-] do in these assays?
Beta apoptosis: 2; T cruzi inh: -14; A1 inh: -0.6; Vif A3G: 6%; RanGTP-Impb inh: 1.2; Calb FLC: -3

How did COc1ccccc1C(=O)NCc1ccccn1 do in these assays?
Beta apoptosis: -2; T cruzi inh: -1; AF4-AF9 inh: -1.2; A1 inh: 1.0; rRNA inh HTS: 19; Vif A3G: -5%; RanGTP-Impb inh: -0.2; Calb FLC: inconclusive; rRNA inh HTS OD600: 7; rRNA inh HTS RFP: 2.2

What do the screens show for `O=C(O)CC1NC(=O)N(c2ccccc2)C1=O` (stereo unspecified)?
T cruzi inh: -7; Vif A3G: 4%; RanGTP-Impb inh: 45*; Calb FLC: 0
